# Source: PubChem (Broad Institute)
# UUG fidelity: yeast start codon fidelity modulation; S. cerevisiae UUG-firefly luciferase reporter, luminescence/redox ratio; activity score, % at 18.7 µM; hit rate 0.13% among 350,000; AID 602363;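 active = replicate mean at a twofold rise or more, about +100% in these data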;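 note: firefly luciferase made from a UUG start codon reports start codon fidelity; reporter light over untreated wells divided by growth signal over untreated wells; some hits fall short of that in this replicate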
# HIV Env fusion: inhibitors of HIV Env-mediated cell fusion; HeLa-JRFL Env/CEM21 cell fusion, luciferase; inhibition, % at 12.3 µM; hit rate 1.1% among 360,000;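 active = mean replicate inhibition score of at least 50 and every replicate individually at or above 50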;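 note: 0% = plate neutral controls and 100% = maraviroc near 300 nM; one replicate is shown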
# An asterisk follows results filed as active; [ ] = another dose, or the depositor's remark. Not all compounds are listed (hit frequency here may not be typical).
SMILES,UUG fidelity,HIV Env fusion
Cc1ccc(S(=O)(=O)N(C)C[C@@H]2Oc3ccc(NS(C)(=O)=O)cc3C(=O)N([C@H](C)CO)C[C@@H]2C)cc1,-8,12[16.7 µM]
Cc1ccc(S(=O)(=O)Nc2ccc3c(c2)C(=O)N([C@H](C)CO)C[C@H](C)[C@@H](CN(C)C(=O)Nc2c(C)noc2C)O3)cc1,-16,-21[16.7 µM]
C[C@@H]1CCCCO[C@@H](CN(C)C(=O)NC2CCCCC2)[C@@H](C)CN([C@H](C)CO)C(=O)c2cc(NS(=O)(=O)c3cn(C)cn3)ccc2O1,-5,22[16.7 µM]
CCCNC(=O)N1[C@H](CO)[C@@H](c2ccccc2)[C@@H]1C#N,5,13[16.7 µM]
C[C@@H]1CCCCO[C@H](CN(C)Cc2ccc(C(=O)O)cc2)[C@H](C)CN([C@H](C)CO)C(=O)c2cc(N(C)C)ccc2O1,11,-5[16.7 µM]
CC(C)CC#Cc1ccc2c(c1)O[C@H](CN(C)C(=O)c1ccncc1)[C@@H](C)CN([C@H](C)CO)S2(=O)=O,-5,-28[16.7 µM]
Cc1noc(C)c1NC(=O)Nc1ccc2c(c1)C(=O)N(C)[C@@H]1CC[C@@H](CC(=O)N(C)C)O[C@H]1CO2,-3,5[16.7 µM]
O=C(C[C@@H]1C[C@H]2c3cc(NC(=O)c4cccnc4)ccc3O[C@H]2[C@H](CO)O1)NCc1cccc(F)c1,-11,-8[16.7 µM]
N#C[C@@H]1[C@H](c2ccc(C#CC3CC3)cc2)[C@@H](CO)N1S(=O)(=O)c1ccccc1,-4,-5[16.7 µM]
Cc1noc(C)c1S(=O)(=O)Nc1ccc2c(c1)C(=O)N([C@@H](C)CO)C[C@@H](C)[C@H](CN(C)C(=O)Cc1ccccc1)OCCCC[C@H](C)O2,6,3[16.7 µM]
O=C(C[C@@H]1C[C@@H]2c3cc(NC(=O)C4CCOCC4)ccc3O[C@@H]2[C@H](CO)O1)NCc1ccncc1,-8,-9[16.7 µM]
C[C@H]1CN([C@@H](C)CO)C(=O)c2cccc(NC(=O)Nc3ccc(F)cc3)c2O[C@H]1CN(C)Cc1ccncc1,-6,-19[16.7 µM]
C[C@H]1CN([C@@H](C)CO)C(=O)c2cccc(NS(=O)(=O)c3ccc(Cl)cc3)c2O[C@@H]1CN(C)S(=O)(=O)c1ccccc1,10,-41[16.7 µM]
C[C@@H]1CCCCO[C@@H](CN(C)C(=O)Nc2ccc(F)cc2)[C@@H](C)CN([C@@H](C)CO)C(=O)c2cc(NC(=O)Nc3ccc(F)cc3)ccc2O1,0,15[16.7 µM]
O=C(CCN1CCCCC1)N[C@H]1CC[C@H](CCNS(=O)(=O)c2ccc(F)cc2)O[C@H]1CO,2,1[16.7 µM]
O=C(C[C@@H]1C=C[C@@H](NC(=O)C2CCC2)[C@@H](CO)O1)NCc1ccccc1Cl,-12,-17[16.7 µM]
CC(C)NC(=O)N(C)C[C@H]1Oc2ccc(NC(=O)Cn3cnnn3)cc2C(=O)N([C@H](C)CO)C[C@H]1C,-13,10[16.7 µM]
C/C=C/c1ccc2c(c1)O[C@H](CN(C)C(=O)C1CCOCC1)[C@H](C)CN([C@H](C)CO)S2(=O)=O,8,-11[16.7 µM]
COc1ccc(S(=O)(=O)Nc2ccc3c(c2)C(=O)N([C@@H](C)CO)C[C@@H](C)[C@H](CN(C)C)O3)cc1,-14,-4[16.7 µM]
CO[C@H]1CN(C)C(=O)c2ccc(NC(=O)Nc3cc(F)ccc3F)cc2OC[C@@H](C)NC[C@H]1C,8,12[16.7 µM]
COc1ccc(NC(=O)Nc2cccc3c2O[C@@H](CN(C)S(=O)(=O)c2ccc(C)cc2)[C@H](C)CN([C@H](C)CO)C3=O)cc1,6,-27[16.7 µM]
Cc1ccccc1S(=O)(=O)N1[C@H](C#N)[C@@H](c2ccc(-c3ccc(F)cc3)cc2)[C@@H]1CO,-24,2[16.7 µM]
Cc1ccc(S(=O)(=O)N(C)C[C@@H]2Oc3c(NS(=O)(=O)c4ccc(Cl)cc4)cccc3C(=O)N([C@@H](C)CO)C[C@@H]2C)cc1,6,1[16.7 µM]
Cc1ccc(S(=O)(=O)Nc2ccc3c(c2)C(=O)N([C@H](C)CO)C[C@@H](C)[C@H](CN(C)C(=O)Nc2c(C)noc2C)O3)cc1,-8,-14[16.7 µM]
C[C@@H]1CN([C@@H](C)CO)S(=O)(=O)c2ccc(C3=CCCCC3)cc2O[C@H]1CN(C)CC1CCCC1,13,40[16.7 µM]
CO[C@H]1CN(C)C(=O)c2cc(NS(C)(=O)=O)ccc2OC[C@@H](C)N(CC2CCOCC2)C[C@H]1C,11,26[16.7 µM]
CCCC#Cc1ccc2c(c1)O[C@@H](CN(C)C(=O)c1ccccc1)[C@@H](C)CN([C@@H](C)CO)S2(=O)=O,13,2[16.7 µM]
C[C@@H]1CN([C@@H](C)CO)C(=O)c2cccc(NC(=O)C3CC3)c2O[C@@H]1CN(C)S(C)(=O)=O,21,-44[16.7 µM]
O=C(C[C@H]1C=C[C@H](NC(=O)CC2CC2)[C@@H](CO)O1)NCc1ccc(-c2ccccc2)cc1,7,20[16.7 µM]
COc1cccc(-c2cn(CC[C@@H]3CC[C@H](NC(=O)CN(C)C)[C@@H](CO)O3)nn2)c1,8,10[16.7 µM]
COc1cccc(CNC(=O)C[C@H]2CC[C@H](NS(=O)(=O)c3ccccc3OC)[C@H](CO)O2)c1,-20,2[16.7 µM]
CC(C)NC(=O)N(C)C[C@@H]1Oc2cc(Br)ccc2S(=O)(=O)N([C@@H](C)CO)C[C@@H]1C,-1,11[16.7 µM]
CN1C(=O)c2cc(NC(=O)c3cscn3)ccc2OC[C@@H]2O[C@H](CC(=O)NCC3CC3)CC[C@@H]21,-1,4[16.7 µM]
C[C@H]1CN([C@@H](C)CO)C(=O)c2cc(/C=C/c3ccccc3)cnc2O[C@H]1CN(C)C(=O)NC1CCCCC1,9,7[16.7 µM]
C[C@H]1CN([C@@H](C)CO)C(=O)Cc2cc(NC(=O)CCCN(C)C)ccc2O[C@H]1CN(C)Cc1ccc(Oc2ccccc2)cc1,0,3[16.7 µM]
Cc1noc(C)c1S(=O)(=O)Nc1ccc2c(c1)CC(=O)N([C@H](C)CO)C[C@H](C)[C@H](CN(C)S(=O)(=O)c1c(C)noc1C)O2,16,23[16.7 µM]
O=C(C[C@@H]1C[C@H]2c3cc(NC(=O)C4CCC4)ccc3O[C@H]2[C@@H](CO)O1)NCc1ccccc1F,11,34[16.7 µM]
Cc1noc(C)c1S(=O)(=O)N(C)C[C@@H]1OCCCC[C@@H](C)Oc2ccc(NS(=O)(=O)c3ccc(F)cc3)cc2C(=O)N([C@H](C)CO)C[C@H]1C,12,-6[16.7 µM]
CCC(=O)N(C)C[C@@H]1Oc2cc(-c3ccccc3C)ccc2S(=O)(=O)N([C@@H](C)CO)C[C@H]1C,11,-21[16.7 µM]
C[C@@H]1CN([C@H](C)CO)C(=O)Cc2cc(NC(=O)CCC(F)(F)F)ccc2O[C@@H]1CN(C)S(=O)(=O)c1cccs1,-2,-4[16.7 µM]
C[C@@H]1CN([C@@H](C)CO)C(=O)c2cccc(NC(=O)Nc3ccc(F)cc3)c2O[C@@H]1CN(C)C(=O)Nc1ccc(C(F)(F)F)cc1,-7,-7[16.7 µM]
COc1ccc(S(=O)(=O)Nc2ccc3c(c2)C(=O)N([C@@H](C)CO)C[C@@H](C)[C@H](CN(C)Cc2ccc(Oc4ccccc4)cc2)O3)cc1,9,15[16.7 µM]
COc1ccc(NC(=O)Nc2ccc3c(c2)CC(=O)N([C@@H](C)CO)C[C@@H](C)[C@@H](CN(C)C(=O)NC2CCCCC2)O3)cc1,1,20[16.7 µM]
COCC#Cc1cnc2c(c1)C(=O)N([C@@H](C)CO)C[C@@H](C)[C@@H](CN(C)C(=O)C1CCC1)O2,30,-22[16.7 µM]
CCCc1cn(CC[C@@H]2CC[C@@H](NC(=O)C3CCOCC3)[C@H](CO)O2)nn1,-2,13[16.7 µM]
COc1cccc(C(=O)Nc2ccc3c(c2)C(=O)N(C)[C@H]2CC[C@@H](CC(=O)NCC4CC4)O[C@H]2CO3)c1,18,4[16.7 µM]
Cc1noc(C)c1NC(=O)Nc1cccc2c1O[C@H](CN(C)C(=O)Nc1ccc(F)cc1)[C@@H](C)CN([C@@H](C)CO)C2=O,15,5[16.7 µM]
O=C(C[C@@H]1C=C[C@H](NS(=O)(=O)c2ccc(F)cc2)[C@H](CO)O1)N1CCN(c2ccccc2)CC1,-5,13[16.7 µM]
CCCN(C)C[C@@H]1Oc2cc(C#CC3CCCCC3)ccc2S(=O)(=O)N([C@@H](C)CO)C[C@@H]1C,10,34[16.7 µM]
CC(C)NC(=O)Nc1ccc2c(c1)C(=O)N([C@H](C)CO)C[C@H](C)[C@H](CN(C)C(=O)c1ccccc1)OCCCC[C@H](C)O2,-1,-13[16.7 µM]
O=C(Cc1ccncc1)NCC[C@@H]1CC[C@@H](NC(=O)C2CCOCC2)[C@@H](CO)O1,-7,-12[16.7 µM]
C[C@@H]1CN([C@H](C)CO)C(=O)c2cc(C3=CCCC3)cnc2O[C@H]1CN(C)Cc1ccccn1,-30,9[16.7 µM]
CCc1cnc(N2[C@H](C#N)[C@H](c3ccc(C4=CCCC4)cc3)[C@@H]2CO)s1,17,2[16.7 µM]
COc1cccc(NC(=O)N(C)C[C@H]2OCc3cn(nn3)CCCC(=O)N([C@H](C)CO)C[C@@H]2C)c1,4,1
CCCC#Cc1ccc2c(c1)O[C@@H](CN(C)C(=O)CC1CC1)[C@@H](C)CN([C@@H](C)CO)S2(=O)=O,2,9[16.7 µM]
COc1ccc(S(=O)(=O)Nc2ccc3c(c2)C(=O)N([C@@H](C)CO)C[C@H](C)[C@@H](CN(C)C)O3)cc1,-21,-1[16.7 µM]
Cc1ccc(S(=O)(=O)Nc2ccc3c(c2)C(=O)N([C@H](C)CO)C[C@@H](C)[C@@H](CN(C)C(=O)c2ccncc2)OCCCC[C@@H](C)O3)cc1,-10,-22[16.7 µM]
C[C@@H]1CN([C@@H](C)CO)C(=O)c2cc(/C=C/c3ccccc3)cnc2O[C@@H]1CN(C)Cc1cccnc1,0,-19[16.7 µM]
C[C@@H]1CN([C@H](C)CO)C(=O)c2cc(NC(=O)C3CCCCC3)ccc2O[C@@H](C)CCCCO[C@H]1CN(C)Cc1ccc(Cl)c(Cl)c1,18,16[16.7 µM]
CCCN(C)C[C@@H]1Oc2cc(C#C[C@@H](C)O)ccc2S(=O)(=O)N([C@@H](C)CO)C[C@@H]1C,6,-12[16.7 µM]

# Next part; it opens with the 6 that closed the last part.
SMILES,UUG fidelity,HIV Env fusion
CCCC#Cc1ccc2c(c1)O[C@@H](CN(C)C(=O)CC1CC1)[C@@H](C)CN([C@@H](C)CO)S2(=O)=O,2,9[16.7 µM]
COc1ccc(S(=O)(=O)Nc2ccc3c(c2)C(=O)N([C@@H](C)CO)C[C@H](C)[C@@H](CN(C)C)O3)cc1,-21,-1[16.7 µM]
Cc1ccc(S(=O)(=O)Nc2ccc3c(c2)C(=O)N([C@H](C)CO)C[C@@H](C)[C@@H](CN(C)C(=O)c2ccncc2)OCCCC[C@@H](C)O3)cc1,-10,-22[16.7 µM]
C[C@@H]1CN([C@@H](C)CO)C(=O)c2cc(/C=C/c3ccccc3)cnc2O[C@@H]1CN(C)Cc1cccnc1,0,-19[16.7 µM]
C[C@@H]1CN([C@H](C)CO)C(=O)c2cc(NC(=O)C3CCCCC3)ccc2O[C@@H](C)CCCCO[C@H]1CN(C)Cc1ccc(Cl)c(Cl)c1,18,16[16.7 µM]
CCCN(C)C[C@@H]1Oc2cc(C#C[C@@H](C)O)ccc2S(=O)(=O)N([C@@H](C)CO)C[C@@H]1C,6,-12[16.7 µM]
Cc1ccc(S(=O)(=O)Nc2ccc3c(c2)C(=O)N([C@H](C)CO)C[C@H](C)[C@H](CN(C)S(=O)(=O)c2ccc(C)cc2)OCCCC[C@H](C)O3)cc1,-9,-37[16.7 µM]
COc1cccc(CNC(=O)C[C@@H]2C=C[C@@H](NS(=O)(=O)c3ccccc3OC)[C@@H](CO)O2)c1,-7,-107[16.7 µM]
CCCN(C)C[C@@H]1OCCCC[C@@H](C)Oc2ccc(NS(=O)(=O)c3cn(C)cn3)cc2C(=O)N([C@H](C)CO)C[C@@H]1C,14,7[16.7 µM]
COc1ccc(S(=O)(=O)Nc2ccc3c(c2)C(=O)N([C@@H](C)CO)C[C@@H](C)[C@@H](CN(C)CC2CC2)OCCCC[C@@H](C)O3)cc1,14,2[16.7 µM]
C[C@H](O)C#Cc1ccc2c(c1)O[C@@H](CN(C)C(=O)C1CCCCC1)[C@@H](C)CN([C@@H](C)CO)S2(=O)=O,9,11[16.7 µM]
C[C@@H]1CN([C@@H](C)CO)C(=O)c2cc(NS(=O)(=O)c3ccc(Cl)cc3)ccc2O[C@H]1CN(C)S(=O)(=O)c1ccc(F)cc1,24,4[16.7 µM]
CCC(=O)N(C)C[C@@H]1Oc2cc(C3=CCCC3)ccc2S(=O)(=O)N([C@@H](C)CO)C[C@@H]1C,37,-11[16.7 µM]
CCCNC(=O)N[C@H]1CC[C@H](CCNS(=O)(=O)c2cccc(F)c2)O[C@@H]1CO,-8,-11[16.7 µM]
